Source: PubChem BioAssay
Sa RN4220 lethal – growth inhibition of S. aureus RN4220, primary screen, OD600 | 16 h | inhibition, % (concentration not given with the values) | hit rate 0.33% among 330,000;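 active = z-score of -3 or lower and OD600 up to 0.18 on both plates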;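 also: plate controls were untreated cells for no effect and reference antibiotic for full effect; stock transfer was 100 nL into about 80 µL; one replicate is shown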
BJeLR viability – MLPCN primary cell-based screen for lethality selective to Ras in HRASV12 cells | BJeLR (HRASV12) viability, CellTiter-Glo ATP luminescence, 48 h; reference of the scale not given here | hit rate 0.17% among 300,000 | inhibition, % (test concentration not listed);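 active = replicate mean above 50%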;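 also: 50 nL library stock added to about 25 µL; numbers are from one replicate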
PrP 5UTR inh – inhibition of PrP 5' UTR reporter expression. cell-based PrP 5' UTR mRNA reporter, plate reader. inhibition, % (no concentration beside the values). hit rate 0.35% among 340,000. AID 488862, 2010;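 active = every replicate at 50% or more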;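 also: 0 = median of the neutral control wells; tested in H4 reporter cells; numbers are from one replicate; inactives centre near -14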
Sa ugtP lethal – growth inhibition of ugtP-null S. aureus, primary screen, RN4220 ugtP deletion, OD600. hit rate 0.54% among 330,000. growth inhibition, % (no concentration beside the values). AID 1259309, 2017. 16 h; some inactives read as strong as hits;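 active = z-score under -3 and OD600 up to 0.15 on both plates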;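 also: plate controls were untreated wells for no effect and antibiotic for full effect; wells of about 80 µL received 100 nL stock; the first replicate is given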
Mtb hypoxia inh – PubChem AID 1159583; M. tuberculosis hypoxia-regulated fluorescent reporter, fluorescence; fluorescence inhibition, % (no concentration beside the values); hit rate 0.1% among 300,000;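 active = 35 to 45% if threefold the growth effect, above 45% if 1.5-fold the growth effect; inactive = the rest, general growth blockers included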;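 also: wells of about 50 µL received 100 nL stock; 0% = vehicle wells and 100% = reference inhibitor wells; whole bacteria with a GFP reporter of the hypoxia response; strong numbers were not always called active; many hits fall short of the cut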
Autofluor counter – counter-screen for toxin protease inhibitors: compound fluorescence; compound autofluorescence counterscreen, microsphere flow cytometry; active compounds read high; fluorescence intensity (concentration not given with the values); hit rate 3.1% among 360,000; AID 624483;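 active = at least 3 SD above the mean of all compounds, about 16000 in these data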;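 also: 100 nL of 1 mM stock went into each well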
Mtb hypoxia inh growth – further read-out of Mtb hypoxia inh, marked with its call; growth inhibition, %; measured here: M. tuberculosis growth (absorbance);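 0% = vehicle and 100% = reference antibiotic; read after six days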
The depositor's hits bear a star; x = no result given.

Values in the order – Sa RN4220 lethal, BJeLR viability, PrP 5UTR inh, Sa ugtP lethal, Mtb hypoxia inh, Mtb hypoxia inh growth, Autofluor counter
COc1ccc(N2CCN(C(=O)CC(NC(N)=O)c3cccc(Oc4ccccc4)c3)CC2)cc1 (stereo unspecified)
 : 1.0, -1.7, -13.9, -2.6, 13.3, 14.4, 10360
COc1cc(C2C(C#N)=C(N)N(N(C)C)C3=C2C(=O)CCC3)ccc1O (stereo unspecified)
 : 1.1, -3.3, 0.1, 2.4, -15.0, -16.4, 3046
CN1CC(=O)N/C1=N\C(=O)Nc1ccc(O)cc1
 : 3.9, -2.5, -20.5, 7.1, 14.8, 1.6, 3890
CCOc1ccc(S(=O)(=O)Nc2cc(Cl)ccc2O)cc1
 : 13.6, 14.5, 0.7, -11.2, x, x, 2233
N#CCC(=O)Nc1ccc(C(=O)NCC(c2ccco2)N2CCCCC2)cc1 (stereo unspecified)
 : 6.4, -3.6, 1.9, -5.6, -2.3, 0.2, 6727
CC(C)(C)C(=O)N1CCN(c2ccc([N+](=O)[O-])cc2-n2cccc2)CC1
 : -1.0, -6.7, -17.7, 46.7, 11.6, 7.3, 6221
CSc1nc(-c2ccco2)nn1C(=O)Cc1ccccc1
 : 1.7, 2.7, -35.0, 6.9, x, x, 3068
CC(=O)Nc1nc(C)c(-c2csc(Nc3ccc(O)cc3)n2)s1
 : 9.3, x, -11.6, -24.5, 3.4, 4.4, 16098
C=CCn1c(Cc2nc3ccc(Cl)cc3[nH]2)n[nH]c1=S
 : 1.7, -4.9, -20.3, 4.9, 6.8, 4.3, 3473
Cc1ccc(C(=O)C2=C(O)C(=O)N(Cc3cccnc3)C2c2ccc(OC(C)C)cc2)o1 (stereo unspecified)
 : 4.9, 5.1, 4.0, 21.4, 3.7, 6.8, 3476

Next section:
Values in the order – Sa RN4220 lethal, BJeLR viability, PrP 5UTR inh, Sa ugtP lethal, Mtb hypoxia inh, Mtb hypoxia inh growth, Autofluor counter
COC(=O)c1ccc(S(=O)(=O)N2CCCN(Cc3cccc(Br)c3F)CC2)n1C
 : 1.9, 5.1, -21.5, 16.7, 4.3, -4.1, 4187
O=S(=O)(NCC1NCCc2ccccc21)c1ccccc1 (stereo unspecified)
 : 1.4, -8.1, -39.1, 1.8, -8.2, 9.5, 5011
COCCCN(C(=O)CCSc1ccc(F)cc1)c1c(N)n(Cc2ccccc2)c(=O)[nH]c1=O
 : 4.6, 8.4, 9.1, -1.7, 7.6, 0.0, 4151
CCCCc1[nH]nc2c1C1(C(=O)N(CC)c3ccccc31)C(C#N)=C(N)O2 (stereo unspecified)
 : 26.6, -3.1, -12.2, -12.6, -0.5, 7.5, 2404
O=C(COc1ccc2cc(Br)ccc2c1)N1CCCC1
 : -0.9, -1.4, -30.0, -4.6, 20.1, 20.3, 6029
CC(=O)Nc1ccc(N2CCCCC2)cc1
 : 9.9, -12.1, -15.0, 17.0, 10.4, -1.5, 7093
N/C(=N\OC(=O)C1CC1)c1ccc([N+](=O)[O-])s1
 : x, -6.3, -28.3, x, x, x, 5998
CCC(=O)N1CC(=O)Nc2ccc(F)cc2C1c1ccc(F)cc1 (stereo unspecified)
 : 1.3, -2.3, -8.9, -0.5, 9.3, 2.7, 3555
CCOc1ccccc1N(CC(=O)O)S(=O)(=O)c1ccc(C)cc1
 : 6.1, 7.8, 6.4, -5.2, 12.9, 10.1, 4247
CCn1nc(C(=O)NCC(c2cccs2)N2CCOCC2)c2ccccc2c1=O (stereo unspecified)
 : 2.2, 2.8, 14.4, 4.9, -0.1, 2.4, 4487

New compounds follow
Values in the order – Sa RN4220 lethal, BJeLR viability, PrP 5UTR inh, Sa ugtP lethal, Mtb hypoxia inh, Mtb hypoxia inh growth, Autofluor counter
Cc1cccc(C)c1OCC(=O)Nc1ccc2c(c1)C(=O)NC2=O
 : 5.0, 1.2, -12.2, 13.8, 4.7, -1.0, 5529
O=C1N(c2cccc(Cl)c2)C(c2cccnc2)N2CCCN12 (stereo unspecified)
 : -2.8, 2.9, -23.7, 4.8, 9.0, 13.3, 4099
Clc1cccc(CN2CCSCC2)c1Cl
 : 5.3, 3.2, -11.6, 16.8, 5.3, 11.8, 3690
Nc1ccc2nc(SCC(=O)N3CCN(c4ccccc4)CC3)sc2c1
 : -3.9, 3.6, -14.6, -6.9, -4.8, 6.5, 6423
O=C(NCc1ccc(-c2csnn2)cc1)c1cc(Cl)cc(Cl)c1
 : -4.1, 3.7, -25.0, -1.4, -12.8, 0.7, 4249
COC(=O)[C@]1(C)NC(c2ccc(-c3ccc(F)cc3)cc2)C2C(=O)N(C)C(=O)C21 (stereo partly specified)
 : 3.3, x, x, -14.1, 14.6, 10.7, x
COc1ccccc1-c1cc(-c2ccccc2)nc(=O)[nH]1
 : 1.7, 9.0, -4.7, 10.7, 7.4, 9.0, 3781
COc1ccc(N(CC(=O)NCc2ccco2)S(=O)(=O)c2ccc(C)cc2)cc1
 : 5.6, 4.4, -27.3, 11.5, 7.3, 8.9, 4590
O=C1C(=Cc2cccs2)N=C(c2cccs2)N1Nc1ccccc1
 : -4.8, x, x, -25.9, 2.9, 3.7, x
Nc1c(C(=O)CSc2ccccn2)c(=O)[nH]c(=O)n1C1CC1
 : 1.2, x, -20.5, 4.1, 5.0, 9.0, 5964

Carrying on:
Values in the order – Sa RN4220 lethal, BJeLR viability, PrP 5UTR inh, Sa ugtP lethal, Mtb hypoxia inh, Mtb hypoxia inh growth, Autofluor counter
C/C(=N\NC(=O)c1ccc(CSc2cccc3cccnc23)cc1)C1CCCCC1
 : x, -7.0, 2.1, x, x, x, 1935
CC(=O)NS(=O)(=O)c1ccc(N2C(=O)c3ccccc3C2=O)cc1
 : 4.1, -1.8, -11.4, -0.6, 11.2, 3.7, 3223
CCOC(=O)C(=O)N/N=C(/c1ccccc1)c1ccc(OC)cc1
 : x, -6.5, -15.8, x, x, x, 3614
C=CCn1c(SCC(=O)NCc2ccco2)nc2sc3c(c2c1=O)CCC3
 : -0.5, -1.9, -1.4, 4.9, x, x, 4319
Cc1nc2cccc(C(=O)NCc3ccccc3)c2o1
 : 0.6, -13.2, -55.2, 2.7, x, x, 3132
CCOc1ccc(OC(=O)C(CCS(C)(=O)=O)N2C(=O)c3ccccc3C2=O)cc1 (stereo unspecified)
 : 2.4, 9.2, -3.8, 2.0, -4.3, 14.4, 9598
CCc1cc(Cn2nc(-c3ccccc3)cc2C(=O)NCc2cccs2)on1
 : -8.2, x, -1.8, -4.3, -2.1, -2.0, 3304
Cc1cccc(N(C(=O)c2csnn2)C(C(=O)NC(C)(C)C)c2cccnc2)c1 (stereo unspecified)
 : -5.0, -3.2, -21.7, -1.4, 4.1, 5.0, 4340
CCc1cccc(NC(=O)CCS(=O)(=O)c2cc3c(cc2C)NC(=O)CO3)c1
 : 4.9, 3.0, -22.6, 7.5, 1.1, -4.3, 4519
CCOn1c(=O)c(-c2cccc3ccccc23)[n+]([O-])c2ccccc21
 : 6.2, -3.2, -7.6, 5.1, 9.6, 3.4, 4647

(list continues)
Values in the order – Sa RN4220 lethal, BJeLR viability, PrP 5UTR inh, Sa ugtP lethal, Mtb hypoxia inh, Mtb hypoxia inh growth, Autofluor counter
Cc1nn(C)c(Oc2ccccc2)c1CCNS(=O)(=O)c1ccc(Cl)cc1
 : 9.7, -6.2, -15.3, -18.1, 6.8, 3.2, 9470
CNc1nc(Sc2cccc(C(F)(F)F)c2)cc(C(F)(F)F)n1
 : -0.7, -21.4, -5.6, 23.6, 18.7, 7.4, 8932
O=C(/C=C/c1c(F)cccc1Cl)NCc1ccc2c(c1)OCO2
 : 0.7, 4.9, -19.5, -3.3, 13.4, 10.4, 3257
COc1cc2c3nnc(-c4ccc(F)cc4)c-3cn(Cc3cccc(C)c3)c2cc1OC
 : 4.5, 11.8, -14.3, 9.0, 1.8, 8.9, 6576
CCOc1ccccc1N(CC(=O)NCc1ccncc1)S(=O)(=O)c1ccccc1
 : 4.7, -6.0, -33.3, -5.2, 17.0, 9.6, 3955
CN(C)C(=O)Oc1ccc(Cl)c2cccnc12
 : -0.6, -15.8, -2.1, -3.4, -9.3, 10.0, 4560
COc1cc(OC)cc(C(=O)OCC(=O)NCc2ccco2)c1
 : 3.0, x, -19.0, 2.0, 6.8, 6.2, 2965
CCc1ccccc1NC(=O)C1CCN(C(=O)c2ccc([N+](=O)[O-])cc2)CC1
 : 3.0, -2.0, -2.9, -2.1, 16.9, 6.0, 1995
Cc1ccc2c(c1)N(Cc1ccc3c(c1)OCO3)C(=O)C(C)O2 (stereo unspecified)
 : 1.4, -1.3, -7.4, -2.4, 5.6, 9.0, 10276
Cc1[nH]c2ccccc2c1C(=O)CSc1ccc(F)cc1
 : 4.5, 10.2, -32.5, 5.9, 6.5, 3.8, 9896

(continued)
Values in the order – Sa RN4220 lethal, BJeLR viability, PrP 5UTR inh, Sa ugtP lethal, Mtb hypoxia inh, Mtb hypoxia inh growth, Autofluor counter
CC(C)Cc1cc(CN2CCCC(CO)(Cc3cccc(Cl)c3)C2)[nH]n1 (stereo unspecified)
 : 0.5, 10.7, -12.3, 5.5, 2.9, 9.0, 4490
COC(=O)c1ccccc1NC(=O)COC(=O)/C=C/c1ccco1
 : 4.6, 3.1, -7.1, -0.6, 3.7, -0.6, 4369
CC1CCN(C(=O)c2ccccc2NC(=O)Nc2ccccc2)CC1
 : -3.6, -1.2, -4.7, -4.3, -6.3, 1.4, 5602
CC(NC(=O)c1ccc(N(C)C)c([N+](=O)[O-])c1)c1ccc(-n2ccnc2)cc1 (stereo unspecified)
 : -2.9, -5.4, 0.9, 18.9, 14.9, -6.8, 4587
COc1ccc(NS(=O)(=O)c2cccc(C(=O)NN=Cc3ccc(OC)c(O)c3)c2)cc1
 : -0.7, x, -12.9, 2.5, 3.9, 11.2, 4106
CCOC(=O)c1sc(NC(=O)c2sccc2C)cc1C
 : 3.5, 14.9, -72.4, 3.3, 9.8, 12.8, 9492
COCC(C)NC(=S)NC(=O)c1cc(S(=O)(=O)N2CCOCC2)ccc1C (stereo unspecified)
 : x, -1.6, -9.4, x, x, x, 1965
CC(C)=CCN1CCN(Cc2cccn2-c2nccs2)CC1CCO (stereo unspecified)
 : 5.6, -1.4, -31.6, 2.4, 12.0, 4.5, 4769
Cc1nn2c3ccccc3n(C)c2nc1=O
 : -10.4, -3.4, -13.8, -3.1, 20.0, 5.7, 3307
O=C(NCCN1CCOCC1)c1c(Cl)cccc1Cl
 : -0.1, -6.6, -10.7, -1.7, -17.6, 2.0, 3641

(list continues)
Values in the order – Sa RN4220 lethal, BJeLR viability, PrP 5UTR inh, Sa ugtP lethal, Mtb hypoxia inh, Mtb hypoxia inh growth, Autofluor counter
Cn1c(SCC(=O)N2c3ccccc3Sc3ccc(Cl)cc32)nnc1-c1ccco1
 : 3.7, x, 1.9, 5.0, 11.7, 3.2, 10539
COc1ccc(S(=O)(=O)N(C)C)cc1NCC(=O)Nc1ccc(Br)cc1F
 : 2.0, 8.0, -3.1, -5.8, -8.8, 13.4, 1979
CCOc1ccc(NC(=O)c2cccnc2Cl)c([N+](=O)[O-])c1
 : 7.3, -19.4, -62.2, 12.4, 5.9, 9.3, 2229
O=C(NCc1ccccc1CN1CCCC1)c1ccc(OCc2cscn2)cc1
 : 2.6, x, -31.7, 5.3, 10.0, -8.3, 5192
Cc1ccc(C(c2nnnn2CC2CCCO2)N2CCN(C)CC2)cc1 (stereo unspecified)
 : -1.3, 2.5, -15.9, 11.4, 6.3, 7.9, 4174
CCOC(=O)c1c(NC(=O)c2cccc([N+](=O)[O-])c2C(=O)O)sc2c1CCCC2
 : 3.6, 4.3, -18.6, 0.2, -1.8, 0.4, 4598
Cc1ccc(-c2nnc(SCC(=O)N3CCCc4ccccc43)n2N)cc1
 : -1.2, -1.0, -8.2, -2.9, x, x, 2517
O=C(COC(=O)c1ccc(F)cc1)NCCc1ccc(F)cc1
 : 5.2, -3.5, 8.1, 4.8, -3.0, -0.2, 4323
O=C(COC(=O)c1c[nH]c2ccccc12)Nc1ccc([N+](=O)[O-])cc1
 : 7.2, x, -11.2, -4.5, -3.3, 2.8, 8303
Cc1nc(N)sc1-c1csc(Nc2cccc(O)c2)n1
 : 2.0, -3.7, -18.8, 0.5, 6.4, 0.4, 2662
COc1ccc(Cl)cc1N(C(=O)c1ccco1)C(C(=O)NC1CCCC1)c1ccncc1 (stereo unspecified)
 : 3.7, -4.8, -18.3, 4.8, 1.2, 12.1, 5089
Cc1ccc(S(=O)(=O)N(C)C)cc1NC(=O)CN1C(=O)NC(Cc2c[nH]c3ccccc23)C1=O (stereo unspecified)
 : 5.2, -0.4, -9.6, 6.1, -3.6, 4.3, 4761
Cc1cccc(C(=O)C2CCN(S(=O)(=O)c3ccc(C(=O)O)cc3)CC2)c1
 : x, -1.5, -19.8, x, x, x, 3665
